Assay outcomes (PubChem BioAssay)
BJeLR viability – lowers viability of BJeLR cells; BJeLR fibroblasts viability, CellTiterGlo ATP luminescence, 48 h; HRASV12, hTERT and SV40 LT/ST transformed; viability loss activity score, % (concentration not given with the values); hit rate 0.64% among 30,000; AID 2275; in the data active means viability loss activity score above about 50%; about a fifth of its hits are not listed in these tables;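 further: higher score means fewer live cells and less ATP luminescence; stock transfer was 50 or 100 nL into about 30 µL; 0% = vehicle wells and 100% = a reference killing control; one replicate is shown; the record names a cut of 85%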
A1 inh – inhibitors of A1; hit rate 0.51% among 21,000; caspase activation, % (concentration not given with the values); MEF A1-2A-BIM cells, caspase-Glo luminescence, 3 h; percent of clofoctol signal, DMSO as zero; AID 2241;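 active means most replicate scores above 10, or exactly half above 10 with mean activity above 10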;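 further: effector caspase 3 and 7 activity cleaving a DEVD luciferin substrate; 50 nL library stock added to about 30 µL; numbers are from one replicate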
* = called active by the depositor; · = no result given.

SMILES	BJeLR viability	A1 inh
O=C(NCc1ccccn1)/C(=C/c1ccccc1Cl)c1ccccc1	-0.4	0.2
OC(c1ccccc1)c1oc2ccccc2c1-c1cnn(-c2ccccc2)c1 (stereo not given)	-0.3	-0.7
CC(C)CC(NC(=O)Cc1ccsc1)C(=O)NN (stereo not given)	-1.6	0.4
O=C(Nc1ccccc1)N1CCN(c2ccc(C(F)(F)F)cn2)CC1	8.1	-0.6
Cc1cc(C(=O)Nc2cccc3c2O[C@@H](CN(C)S(C)(=O)=O)[C@@H](C)CN([C@H](C)CO)C3=O)n(C)n1	-1.6	·
C[C@H](CO)N1C[C@H](C)[C@@H](CN(C)Cc2ccc(C(=O)O)cc2)Oc2ccc(NS(=O)(=O)c3ccc(F)cc3)cc2C1=O	2.8	0.4
CNC[C@H]1Oc2c(NC(=O)c3cc(C)nn3C)cccc2C(=O)N([C@H](C)CO)C[C@@H]1C	-2.4	·
CC1=CC2=NC(C(F)(F)F)(C(F)(F)F)NC(=O)N2C=C1	2.7	0.5
CCOC(=O)c1c(C)oc(-c2ccc(Cl)cc2)c1S(=O)(=O)NCc1ccccc1	0.7	-0.3
O=C1CN(C(=O)C23CC4CC(CC(C4)C2)C3)CC(=O)N1CCc1ccccc1	0.3	·
CCOC(=O)Cn1c(=O)oc2cc(S(=O)(=O)NCc3cccc(OC)c3)ccc21	1.2	·
Cn1c(C(=O)N2CCCCCC2)cc2c(=O)[nH]c3ccccc3c21	4.2	·
C[C@@H]1CN([C@H](C)CO)C(=O)c2cc(NS(=O)(=O)c3ccc(F)cc3)ccc2O[C@H]1CN(C)CC1CCCCC1	-0.8	-0.7
C[C@H](CO)N1C[C@H](C)[C@@H](CN(C)S(=O)(=O)c2ccccc2)Oc2c(NC(=O)c3cnccn3)cccc2C1=O	0.4	·
Cc1ccc(S(=O)(=O)Nc2ccc3c(c2)C(=O)N([C@H](C)CO)C[C@@H](C)[C@@H](CN(C)S(=O)(=O)c2ccccc2)O3)cc1	5.6	-1.0
CCOC(=O)C(C)Oc1cc(O)c2c(=O)cc(-c3ccccc3)oc2c1 (stereo not given)	-1.2	-1.9
CC(C)(C)C(=O)Nc1nc(NC(=O)C(C)(C)C)nc(-c2ccccc2C(F)(F)F)n1	-0.1	0.8
O=C(NCCc1ccccc1)c1cc2ccccn2n1	2.4	·
O=C(CCCn1c(=O)c2cccn2c2ccccc21)NCCc1ccccc1	-2.3	0.6
CCOc1ccc(-n2c(=O)c3c4c(sc3n(CC(=O)NCC3CCCO3)c2=O)CCCC4)cc1 (stereo not given)	-5.2	·
C[C@@H]1CN([C@H](C)CO)C(=O)c2cccc(NS(=O)(=O)c3ccccc3)c2O[C@H]1CN(C)Cc1ccc(Oc2ccccc2)cc1	-1.0	·
Cc1noc(C)c1NC(=O)Nc1ccc2c(c1)C(=O)N([C@H](C)CO)C[C@H](C)[C@@H](CN(C)Cc1ccc(-c3ccccc3)cc1)O2	3.0	0.1
O=C(Cn1nc(Cc2ccncc2)c2ccccc2c1=O)NCc1ccccc1	-5.7	0.6
CCCCn1cnc2sc3c(c2c1=N)CCCCC3	-3.4	-0.9
C[C@H](CO)N1C[C@H](C)[C@H](CN(C)C(=O)Nc2ccc(C(F)(F)F)cc2)Oc2ccc(NS(=O)(=O)c3ccc(Cl)cc3)cc2C1=O	-0.5	0.1
C[C@H](CO)N1C[C@H](C)[C@@H](CN(C)Cc2ccccc2)Oc2ccc(NS(=O)(=O)c3ccc(F)cc3)cc2C1=O	4.6	0.2
CCOc1ccc(C(=O)Nc2cc(C)ccn2)cc1	90*	-6.7
C[C@@H]1CN([C@@H](C)CO)C(=O)c2cc(NC(=O)CCN3CCOCC3)ccc2O[C@H]1CN(C)Cc1ccc(Cl)c(Cl)c1	2.5	-0.4
Cc1ccc(-n2nc(C(=O)NCCc3ccc(Cl)cc3)c3c4ccccc4n(C)c3c2=O)cc1	3.2	·
COc1ccc(CN(C)C[C@H]2Oc3c(NS(=O)(=O)c4ccc(F)cc4)cccc3C(=O)N([C@@H](C)CO)C[C@@H]2C)cc1	-2.2	·

Gathered by group: those above with a furan ring, fused or not
SMILES	BJeLR viability	A1 inh
OC(c1ccccc1)c1oc2ccccc2c1-c1cnn(-c2ccccc2)c1 (stereo not given)	-0.3	-0.7
CCOC(=O)c1c(C)oc(-c2ccc(Cl)cc2)c1S(=O)(=O)NCc1ccccc1	0.7	-0.3

Next section:
SMILES	BJeLR viability	A1 inh
CCc1ccc2c(c1)=C(c1sc(Nc3cccc(Cl)c3C)nc1O)C(=O)N=2	-4.8	-0.3
CCCC1(O)Cc2c(C(C)=O)cc3cccc(O)c3c2O1 (stereo not given)	-2.4	-0.4
C[C@@H]1CN([C@@H](C)CO)C(=O)c2cccc(NS(=O)(=O)c3ccccc3)c2O[C@@H]1CN(C)Cc1ccc(Cl)c(Cl)c1	5.3	·
Cc1noc(C)c1NC(=O)Nc1ccc2c(c1)C(=O)N([C@H](C)CO)C[C@H](C)[C@@H](CN(C)Cc1ccccc1)O2	3.8	-0.3
O=C(CSc1ncnc2c1nnn2Cc1ccc(F)cc1)OCc1ccccc1	-2.8	-0.7
C[C@@H]1CN([C@H](C)CO)C(=O)c2cccc(NS(=O)(=O)c3cn(C)cn3)c2O[C@@H]1CN(C)Cc1ccc(Cl)c(Cl)c1	0.5	·
CC(C)NC(=O)N(C)C[C@H]1Oc2c(NS(=O)(=O)c3ccc(Cl)cc3)cccc2C(=O)N([C@H](C)CO)C[C@@H]1C	9.2	·
Cc1ccc(C(=O)N/C(N)=N/c2nc3ccccc3o2)cc1	-0.8	-0.5
C[C@@H]1CN([C@H](C)CO)C(=O)c2cc(NS(=O)(=O)c3ccccc3)ccc2O[C@@H]1CN(C)Cc1ccc(Oc2ccccc2)cc1	-0.2	-0.1
CNC[C@H]1Oc2ccc(NC(=O)Cn3cnnn3)cc2C(=O)N([C@@H](C)CO)C[C@@H]1C	1.0	0.3

Laid out differently: entries from further up.
SMILES,BJeLR viability,A1 inh
CCCC1(O)Cc2c(C(C)=O)cc3cccc(O)c3c2O1 (stereo not given),-2.4,-0.4
C[C@@H]1CN([C@@H](C)CO)C(=O)c2cccc(NS(=O)(=O)c3ccccc3)c2O[C@@H]1CN(C)Cc1ccc(Cl)c(Cl)c1,5.3,·
Cc1noc(C)c1NC(=O)Nc1ccc2c(c1)C(=O)N([C@H](C)CO)C[C@H](C)[C@@H](CN(C)Cc1ccccc1)O2,3.8,-0.3
O=C(CSc1ncnc2c1nnn2Cc1ccc(F)cc1)OCc1ccccc1,-2.8,-0.7

Back to the main list, repeating the 2 entries before the break.
SMILES	BJeLR viability	A1 inh
C[C@@H]1CN([C@H](C)CO)C(=O)c2cc(NS(=O)(=O)c3ccccc3)ccc2O[C@@H]1CN(C)Cc1ccc(Oc2ccccc2)cc1	-0.2	-0.1
CNC[C@H]1Oc2ccc(NC(=O)Cn3cnnn3)cc2C(=O)N([C@@H](C)CO)C[C@@H]1C	1.0	0.3
Cc1cc(C(=O)Nc2cccc3c2O[C@H](CN(C)Cc2ccc(Oc4ccccc4)cc2)[C@@H](C)CN([C@H](C)CO)C3=O)n(C)n1	-0.9	·
C[C@@H]1CN([C@H](C)CO)C(=O)c2cccc(NC(=O)Nc3ccc4c(c3)OCO4)c2O[C@@H]1CN(C)Cc1ccc(Cl)c(Cl)c1	-0.3	·
CC(O)c1cncc2c(=O)n3c(cc12)-c1[nH]c2ccccc2c1CC3 (stereo not given)	9.4	0.0
Cc1nc2nc(SCC(=O)Nc3ccccc3C(F)(F)F)nn2c(C)c1Cc1ccccc1	-5.7	0.5
Cc1ccc(S(=O)(=O)N(C)C[C@@H]2Oc3ccc(NC(=O)Nc4ccc(F)cc4)cc3C(=O)N([C@H](C)CO)C[C@H]2C)cc1	4.3	0.5
C[C@H](CO)N1C[C@H](C)[C@H](CN(C)C(=O)Nc2ccc3c(c2)OCO3)Oc2c(NC(=O)Nc3ccc4c(c3)OCO4)cccc2C1=O	7.1	·
Cc1ccc(S(=O)(=O)NCCC(=O)N2CCOCCOCCOCC2)cc1	4.8	-0.2
C[C@H]1CN([C@@H](C)CO)C(=O)c2cccc(NS(=O)(=O)c3ccc(F)cc3)c2O[C@@H]1CN(C)S(=O)(=O)c1ccc(F)cc1	2.6	·
O=C(/C=C/c1ccc(O)cc1)O[C@@H]1CC(O)(C(=O)O)C[C@@H](OC(=O)/C=C/c2ccc(O)cc2)C1O (stereo not given in full)	-5.7	-0.5
COc1ccc(Nc2ncc(C#N)c(N)n2)c(OC)c1	-1.2	-1.9
C[C@@H]1CN([C@H](C)CO)C(=O)c2cccc(NS(=O)(=O)c3ccccc3)c2O[C@H]1CN(C)C(=O)Nc1ccc(F)cc1	-2.1	·
Cc1ccc(S(=O)(=O)Nc2cccc3c2O[C@@H](CN(C)Cc2ccccc2)[C@H](C)CN([C@@H](C)CO)C3=O)cc1	1.5	·
C[C@H](CO)N1C[C@H](C)[C@@H](CN(C)S(=O)(=O)c2cn(C)cn2)Oc2ccc(NC(=O)CCCCCC(=O)Nc3ccccc3N)cc2C1=O	-6.1	·
C[C@@H]1CN([C@@H](C)CO)C(=O)c2cc(NS(=O)(=O)c3cn(C)cn3)ccc2O[C@@H]1CN(C)CC1CC1	0.1	-0.5
O=C1CCC(=O)N1CNc1cc(C(F)(F)F)cc(C(F)(F)F)c1	-9.4	0.2
C[C@@H]1CN([C@H](C)CO)C(=O)c2cc(NC(=O)C3CCCCC3)ccc2O[C@H]1CN(C)C	2.4	-0.5
O=C(c1cnn2ccccc12)N1CCc2ccccc21	11	-7.3
O=C(Sc1ccccn1)N1c2ccccc2Sc2ccccc21	3.6	0.2
C[C@@H]1CN([C@H](C)CO)C(=O)c2cccc(NS(=O)(=O)c3cn(C)cn3)c2O[C@H]1CN(C)C(=O)Nc1ccccc1	0.0	·
Cc1noc(C)c1NC(=O)N(C)C[C@H]1Oc2c(NS(=O)(=O)c3cn(C)cn3)cccc2C(=O)N([C@@H](C)CO)C[C@@H]1C	-5.4	·
Clc1ccc(Sc2cn[nH]c2-c2ccc3c(c2)OCCO3)cc1	-4.4	-0.2
C[C@@H]1CN([C@@H](C)CO)C(=O)c2cc(NC(=O)Cn3cnnn3)ccc2O[C@H]1CN(C)C	0.7	-0.4
COc1ccc(S(=O)(=O)Nc2cccc3c2O[C@H](CN(C)C)[C@H](C)CN([C@H](C)CO)C3=O)cc1	2.3	·
Cc1ccc(S(=O)(=O)N(C)C[C@@H]2Oc3c(NC(=O)Nc4ccc5c(c4)OCO5)cccc3C(=O)N([C@H](C)CO)C[C@@H]2C)cc1	-2.9	·
CC(C)(C)c1ccc(C(=O)Nc2cccc(C(F)(F)F)c2)cc1	9.3	1.0
CC1=NN(c2cc(Cl)cc(Cl)c2)C(=O)CC1	-1.0	-0.7
Cc1noc(C)c1NC(=O)N(C)C[C@H]1Oc2ccc(NC(=O)Nc3ccccc3)cc2C(=O)N([C@H](C)CO)C[C@H]1C	-0.8	1.1
CC(C)NC(=O)N(C)C[C@@H]1Oc2ccc(NC(=O)CCCN(C)C)cc2C(=O)N([C@@H](C)CO)C[C@H]1C	0.0	-0.5
CC(=O)OC1COC(OC2C(O)C(C)OC(OC3C(OC4CCC5(C)C(CCC6(C)C5CC=C5C7CC(C)(C)CCC7(C(=O)O)CCC56C)C4(C)CO)OCC(O)C3O)C2O)C(O)C1OC(C)=O (stereo not given)	4.8	-1.7
Cc1ccccc1Nc1nnc(-c2ccc(C(=O)NCCO)cc2)c2ccccc12	-3.9	0.2
Fc1ccc(-n2cc(-c3ccccc3)c3c(NCc4ccccc4)ncnc32)cc1	13	·
CCc1ccc(NC(=O)C2NC(=O)CC2c2ccccc2)cc1 (stereo not given)	5.0	·
C[C@H]1CN([C@@H](C)CO)C(=O)c2cc(N(C)C)ccc2O[C@H]1CN(C)C	-2.5	-0.5
C[C@@H]1CN([C@@H](C)CO)C(=O)c2cccc(NS(=O)(=O)c3cccs3)c2O[C@H]1CN(C)Cc1ccc(-c2ccccc2)cc1	-9.1	·
O=C1c2ccccc2-c2c1cnc1c(-c3ccccc3)cnn21	0.4	-0.2
C[C@H](CO)N1C[C@H](C)[C@@H](CN(C)C)Oc2c(NC(=O)c3ccncc3)cccc2C1=O	-0.5	·
C=C1C(=O)O[C@H]2C[C@H](C)[C@@H]3CC(=O)C(C)=C3C[C@H]12	4.7	-0.2
CC(C)NC(=O)N(C)C[C@@H]1Oc2ccc(NC(=O)CCC(F)(F)F)cc2C(=O)N([C@@H](C)CO)C[C@@H]1C	3.4	-0.2
COc1ccccc1OC(=O)NC(C)C	3.5	0.2
COc1ccc(CN(C)C[C@@H]2Oc3c(NS(=O)(=O)c4ccc(OC)cc4)cccc3C(=O)N([C@@H](C)CO)C[C@@H]2C)cc1	1.8	·
CCN(CC)c1n[nH]nc1-c1cccc(Cl)c1	1.7	-0.9
CC(C)NC(=O)N(C)C[C@@H]1Oc2c(NC(=O)Nc3ccccc3)cccc2C(=O)N([C@H](C)CO)C[C@@H]1C	-5.0	·
CCCOc1ccc(/C=C/C(=O)Nc2nccs2)cc1OC	-7.8	-2.0
Cc1cc2nc(SCCN3CCCC3)[nH]c2cc1C	-1.5	0.2
CC(C)NC(=O)Nc1ccc2c(c1)C(=O)N([C@@H](C)CO)C[C@H](C)[C@@H](CN(C)C(=O)Nc1cccc3ccccc13)O2	-0.1	-0.1
C[C@@H]1CN([C@H](C)CO)C(=O)c2cccc(NC(=O)c3nc4ccccc4s3)c2O[C@H]1CN(C)Cc1ccncc1	-9.2	·
CC(C)NC(=O)Nc1cccc2c1O[C@@H](CN(C)Cc1ccc(Oc3ccccc3)cc1)[C@@H](C)CN([C@@H](C)CO)C2=O	1.7	·
Cc1ccc(S(=O)(=O)N(C)C[C@@H]2Oc3c(NS(=O)(=O)c4ccccc4)cccc3C(=O)N([C@@H](C)CO)C[C@@H]2C)cc1	3.0	·
O=C(CCN1CCN(c2ccccc2)CC1)Nc1nccs1	-1.6	-0.3

Not all compounds are listed. The share of hits here may be higher or lower than overall.
